High-throughput results as filed in PubChem BioAssay.
TRPML1 inh: human mucolipin-1 channel inhibition; Q9GZU1; TRPML1-inducible cells, Ca2+ dye fluorescence, FDSS; stronger effect = lower value; inhibition of EC80 agonist-evoked calcium signal; activity change, negative = inhibition, % (no concentration beside the values); actives 0.02% (n = 390,000); AID 624415; in the data active means activity change below about -50%; inconclusive means about -30% to -50%; inactive means above about -30%;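 further: stimulus is agonist 54-4 at its EC80 concentration; on the % scale 0 is the no-effect control and ±100 the full control effect; compound concentration not given in the record; the text of the record puts the active cut at -80%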
Target sequence (Q9GZU1 whole entry, looked up): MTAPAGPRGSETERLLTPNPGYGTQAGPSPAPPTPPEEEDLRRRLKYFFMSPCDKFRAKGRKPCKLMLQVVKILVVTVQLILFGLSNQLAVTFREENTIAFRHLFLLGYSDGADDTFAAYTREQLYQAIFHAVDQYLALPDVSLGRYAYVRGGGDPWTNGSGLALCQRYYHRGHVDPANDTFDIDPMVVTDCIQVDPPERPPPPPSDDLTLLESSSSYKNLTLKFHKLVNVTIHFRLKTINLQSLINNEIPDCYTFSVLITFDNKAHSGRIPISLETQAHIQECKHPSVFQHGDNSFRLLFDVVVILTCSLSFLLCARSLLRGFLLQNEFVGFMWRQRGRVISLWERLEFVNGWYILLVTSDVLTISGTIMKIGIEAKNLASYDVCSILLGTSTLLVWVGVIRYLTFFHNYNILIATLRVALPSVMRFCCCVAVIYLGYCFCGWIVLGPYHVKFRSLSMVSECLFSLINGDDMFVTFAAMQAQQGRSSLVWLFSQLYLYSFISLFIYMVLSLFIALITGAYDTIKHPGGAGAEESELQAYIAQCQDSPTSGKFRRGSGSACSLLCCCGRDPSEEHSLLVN
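Tet-induced TRPML1-DL cells loaded with Ca8 no-wash calcium dye were read kinetically on FDSS. Compound addition was followed by EC80 agonist 54-4 (4 uM final); inhibition was read over 110 s.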
ClpP mod: qHTS Assay for Activators of ClpP. purified B. subtilis ClpP, FRET peptide cleavage, 20 min. ATP-dependent Clp protease proteolytic subunit (Bacillus subtilis (strain 168)), P80244. actives 1.9% (n = 340,000). Potency, µM (titrated, usually from 57.5 µM), inactives show at the top dose activity change, negative = active. AID 651965, 2013; active = well fitted falling curve with a large enough effect; inconclusive = small, poorly fitted or top-dose-only effect; inactive = no such curve, though single readings can be large or run the other way; further: potency means the concentration at half of the fitted maximal effect; the source files actives as falling curves though it sought activators and does not explain the sign; nearly all actives have a fitted effect of over 65% in size; many hits overshoot -100%
Target sequence (P80244 whole entry, looked up): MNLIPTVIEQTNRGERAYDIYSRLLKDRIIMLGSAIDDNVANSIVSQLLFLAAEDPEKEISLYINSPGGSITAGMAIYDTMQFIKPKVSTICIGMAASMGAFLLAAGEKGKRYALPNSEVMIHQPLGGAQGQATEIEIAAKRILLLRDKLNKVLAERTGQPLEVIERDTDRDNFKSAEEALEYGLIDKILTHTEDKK
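Buffer: 100 mM Tris/HCl pH8, 100 mM KCl, 0.05% low protease BSA, 2.5% glycerol, 0.01% Tween-20. ClpP 10 microg/mL final; 20 min RT; delta FRET normalized to ADEP and DMSO controls.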
gsp antagonist: antagonists of gsp mutant (McCune-Albright syndrome) | gsp-mutant cells, cAMP HTRF, 30 min; control for the full effect not named in the record | Potency, µM (highest dose often 76.9 µM), inactives show top-dose activity change, negative = inhibition, most hits filed as inhibitors | actives 0.4% (n = 340,000) | AID 624288; active = falling curve of any shape with a large fitted effect; inconclusive = falling curve, mostly with a smaller effect; inactive = flat or rising curve; cell line not stated here;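 further: intracellular cAMP measured with PDE inhibitor Ro 20-1724 present during compound exposure; potency means the concentration at half of the fitted maximal effect; on the % scale 0 is the no-effect control and ±100 the full control effect; nearly all actives have a fitted effect of over 65% in size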
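HTRF cAMP measurement after 30 min RT detection following 30 min, 37C compound treatment alongside […] (added as 300 uM solution) in G418-selected cells seeded at 2000/well and grown 16–24 h.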
gsp ag: gsp mutant agonism. actives 0.13% (n = 340,000). Potency, µM (doses to about 76.9 µM), without a hit: at the highest dose activation (cAMP increase), usual class: activators. gsp mutant cells, cAMP HTRF, 30 min; control for the full effect not named in the record; active = well fitted activation curve with a large enough effect; inconclusive = small, poorly fitted or top-dose-only effect, or another doubt; inactive = no such curve, though single readings can be large or run the other way; cell line not stated here;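 further: phosphodiesterase inhibitor Ro 20-1724 added with compounds to block cAMP breakdown; potency means the concentration at half of the fitted maximal effect; nearly all actives have a fitted effect of over 60% in size; about a fifth of the inactives were tested at one dose only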
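Cells in DMEM/10% FBS with G418 were pretreated with compounds in DMSO plus […] (300 uM stock) for 30 min at 37C. cAMP was measured by HTRF (cAMP-d2 plus anti-cAMP antibody-K) after 30 min at room temperature.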
TRPML1 ag: activates the human TRPML1 channel | Q9GZU1 | TRPML1-expressing cells, Ca2+ dye fluorescence, FDSS; host cell line not named in the record; reference of the full effect not given here | activation, % (no concentration beside the values) | actives 0.12% (n = 410,000); in the data active = activation above about 50%; inconclusive = about 30% to 50%; inactive = below about 30%; further: 0% is about no effect; the text of the record puts the active cut at 80%
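In this qHTS format, compounds were pin-transferred onto Ca8-dye-loaded TRPML1-DL cells induced with Tet overnight, and intracellular Ca2+ fluorescence was recorded kinetically for 110 s after a 10 s baseline. A subsequent 4uM final 54-4 (EC80) addition followed by a second 110 s read served as the antagonist phase.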
Menin MLL FP FL: displaces fluorescein MLL peptide from human menin; Fluorescence polarization, fluorescein-MLL peptide displacement from menin; FP activity change, % at 61.4 µM; 290,000 tested, under 10 active; AID 1766; inconclusive = falling polarisation curve, or a change in total fluorescence; inactive = total fluorescence flat and polarisation flat or rising; no compound was filed as active; the % refers to the polarisation; negative = inhibition;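 further: % of control where 0% means no effect; inhibitors lower the polarisation; unlabelled MLL peptide was the positive control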
* hit, by the source's call; ? = inconclusive; · = no result given; [ ] = remark or other dose.

SMILES	TRPML1 inh	ClpP mod	gsp antagonist	gsp ag	TRPML1 ag	Menin MLL FP FL
COc1ccc(N2CCN(C(=O)COC(=O)CCOc3cc(C)ccc3C)CC2)cc1	-8	-18%	-11%	-23%	0.5	·
CCNC(=S)N(Cc1ccc(OC)cc1)C1CC(=O)N(c2ccc(OCC)cc2)C1=O (centres undefined)	-11	-1.5%	-15%	2%	0.7	2.2
CCCNC(=O)c1ccc(SCC(=O)N(CC)CC)c([N+](=O)[O-])c1	-6	-4.1%	-16%	2%[15.4 µM]	-1.2	2.3
C=CCn1c(-c2csc(-c3ccc(Cl)cc3)n2)n[nH]c1=S	75	-11%	7%	?	0.5	5.9
COc1ccc(N2CCN(C(=O)c3nn(-c4ccc(C)cc4)c(=O)n(C)c3=O)CC2)cc1	8	-7.3%	·	·	-0.9	·
CN(Cc1ccc(C(F)(F)F)cc1)C(=O)C1CC(=O)N(Cc2ccco2)C1 (centres undefined)	-7	-1.4%	1%	8%	0.4	·
CC(=O)NCCc1ccc(-c2csc(NC(=O)C3CC(=O)N(C4CCCC4)C3)n2)cc1 (centres undefined)	-2	-8.5%	5%	15%	0.1	·
O=C(/C=C/[C@H]1O[C@@H](n2cnc3c(NC(=O)c4ccccc4)ncnc32)[C@H](O)[C@@H]1O)NCCCN1CCCC1=O	-1	0.2%	·	·	-0.5	·
CCOC(=O)Cn1c(CN2CCN(c3cccc(Cl)c3)CC2)nc2c1c(=O)[nH]c(=O)n2C	-2	1.4%	-7%	26%	-0.9	0.8
CCc1ccc2oc(=O)cc(CN(C)Cc3ccccc3)c2c1	-1	16µM*	5%	-41%[inhibitor]	-1.5	3.0
COc1ccc(OCC(=O)NCC2(N3CCN(C)CC3)CCCCC2)cc1	-15	-1.9%	·	·	1.4	·
COc1ccc(CCN2CC(C(=O)NCCc3ncccc3C)CCC2=O)cc1 (centres undefined)	-6	-3.7%	·	-15%	-0.1	·
Cc1nn(C)cc1C(C(=O)NC1CCCCC1)N(C(=O)Cc1cccs1)c1ccc(F)cc1 (centres undefined)	7	2.3%	-6%	0%	3.5	4.1
COc1cc(C2C(C(=O)OC(C)C)=C(C)Nc3ncnn32)cc(OC)c1OC (centres undefined)	4	-0.2%	2%	14%	-0.2	-0.8
C=CCOC(/C=C/c1ccccc1)C[Si](C)(C)C (centres undefined)	2	·	·	·	0.7	12
Cc1cccc(Cn2c(=O)n(CCCCC(=O)NCc3ccc4c(c3)OCO4)c(=O)c3ccccc32)c1	20	-4.8%	·	·	-0.8	·
O=C(OC(C(=O)NCC1CCCO1)c1ccc(F)cc1)c1ccco1 (centres undefined)	11	0.8%	4%	-53%[inhibitor]	0.5	7.3
CCOC(=O)c1ncn2c1C(=O)OC2(C)C	-8	0.7%	-2%	4%	0.0	-2.7
CCOc1ccc(C(=O)NCC(=O)NNC(=O)CN(C)S(=O)(=O)c2ccc(Cl)cc2)cc1OCC	-5	-0.2%	18%	5%	2.4	·
CCOC(=O)C1=C(C)N(C)C(=O)NC1c1c(C)nn(-c2ccccc2)c1C (centres undefined)	-13	-10%	1%	-7%	-0.2	6.9
COc1ccc(NC(=O)c2cc(CN3C(=O)c4ccccc4C3=O)ccc2OC)cn1	-15	-1.3%	12%	9%	-0.4	-28
CCOc1ccc(N=C(/C(C(=O)C(=O)N2CCOCC2)=C(/O)c2ccccc2)c2ccccc2)cc1	20	-2.8%	-8%	10%	-0.6	9.0
COc1cc(OC)cc(C(=O)N[C@H](C(=O)NCCc2c[nH]c3ccccc23)C(C)C)c1	52	1.6%	-19%	-1%[15.4 µM]	-1.1	2.2
O=C(NC(=S)Nc1cccc2c(O)cccc12)c1ccco1	7	5.2%	-10%	12%	1.6	5.1
COc1ccc(N2CC(C(=O)N(C)CC(=O)Nc3ccc(Cl)c(C(F)(F)F)c3)CC2=O)c(OC)c1 (centres undefined)	2	·	-11%	3%[15.4 µM]	0.0	·
COC(=O)c1ccccc1NC(=O)C1=C(C)C(=O)OC12CCC(C)CC2 (centres undefined)	10	-0.5%	·	·	0.3	·
Brc1ccc(-c2ccccc2)cc1	-4	-1.5%	-5%	·	0.5	·
O=c1cc(CS(=O)(=O)c2ccccc2)nc(-c2ccncc2)[nH]1	-3	·	5%	4%[15.4 µM]	0.0	5.5
C=CCn1c(=N)n(CC(=O)c2ccc(Br)cc2)c2ccccc21	1	-2.3%	0%	-1%[15.4 µM]	2.4	-2.0
COc1ccc(CCN2C(=O)CS/C2=N\NC(=O)c2cccs2)cc1OC	-13	0.7%	-8%	?	2.7	-1.7
O=C1CC(c2ccccc2)Cc2[nH]c(=O)c(-c3nc(-c4ccc(Cl)cc4)cs3)cc21 (centres undefined)	4	-9.3%	·	·	-0.3	·
O=C(NC1CCCC1)C(c1ccsc1)N(C(=O)Cc1cccs1)c1ccc(F)cc1 (centres undefined)	-2	-0.1%	5%	-10%	-0.6	-0.9
COc1ccc(N(CC(=O)Nc2ccc(C(C)C)cc2)S(=O)(=O)c2c(C)noc2C)cc1	11	1.8%	-6%	?	-0.1	·
CN(C)S(=O)(=O)c1cccc(NC(=O)COc2cccc3ccccc23)c1	6	-0.6%	-24%	3%	-0.3	·
COc1ccc(C2=NN(C(=O)c3ccco3)C(c3cc4ccccc4nc3Cl)C2)cc1 (centres undefined)	-15	-7.8%	-3%	10%	-0.6	9.2
CCOC(=O)c1sc(=S)n(C)c1NC(=O)c1ccccc1Cl	6	?	-8%	4%	-0.4	1.4
COC(=O)N/N=C/c1cn(CCOc2ccc(OC)cc2)c2ccccc12	15	-0.6%	9%	0%	4.7	3.6
Cc1nn(-c2ccccc2)c2nc(C3CC3)cc(C(=O)NCc3ccccc3Cl)c12	-2	4.0%	·	·	0.6	·
COc1cc(C2OC(=O)c3ccccc3S2)cc(OC)c1OC (centres undefined)	-3	·	-3%	0%	0.3	1.1
CCN(CC)Cc1c(C(=O)OC(C)C)nnn1-c1nonc1N	1	?	11%	-26%	0.1	2.5
CC(=O)NC(CCS(C)(=O)=O)C(=O)Nc1ccccc1 (centres undefined)	-4	-1.0%	9%	?	0.4	-1.1
O=C(CCSc1nnc2ccccn12)Nc1ccc(F)cc1	14	28µM*	16%	6%	-0.3	2.0
C/C(=N\O)c1c(C)c2ccccc2n1C	-1	1.4%	14%	-34%[inhibitor]	-1.0	2.5
CC(C)(C)C(=O)N(CCN(C(=O)C(C)(C)C)c1ccccc1)c1ccccc1	11	0.2%	3%	-2%	2.2	-0.2
Cc1[nH]c2ccccc2c1C(Nc1nccs1)c1ccncc1 (centres undefined)	-18	-0.5%	6%	-7%	-0.6	-0.5
O=C(Nc1scc(-c2ccc(Br)cc2)c1C(=O)O)c1ccccc1F	3	·	-23%	12%[15.4 µM]	0.7	·
COc1ccc2oc(-c3cccc(NC(=O)CSc4ccc(Cl)cc4)c3)nc2c1	-3	?	-13%	-2%	0.6	17
CN(C)CCNC(=O)c1cccc(S(=O)(=O)Nc2ccc(F)cc2)c1	-12	·	5%	-2%[15.4 µM]	-0.5	0.5
CN(C)C(CN1C(=O)C2CC=CCC2C1=O)c1cn(C)c2ccccc12 (centres undefined)	14	-5.7%	11%	-28%	-0.1	0.5
CC(C)CCNC(=O)C(c1ccncc1)N(CC1CCCO1)C(=O)Cn1nnc(-c2ccc(F)cc2)n1 (centres undefined)	6	·	6%	3%[15.4 µM]	-0.3	-1.7
The list continues:
SMILES	TRPML1 inh	ClpP mod	gsp antagonist	gsp ag	TRPML1 ag	Menin MLL FP FL
Cc1cc(-n2nc(C)cc2C)nc(NS(=O)(=O)c2ccccc2)n1	2	-7.8%	-13%	1%	-1.1	-1.5
CCOC(=O)c1nnn(-c2nonc2N)c1-c1ccc(OC)cc1	5	-6.1%	5%	-26%	-0.7	2.5
COC(=O)C1=C(C)N(C)C(=O)NC1c1ccc(O)c(Cl)c1 (centres undefined)	23	2.7%	4%	1%	3.4	18
Cc1cccc(NC(=O)CSc2nc(C)nc3c2c(=O)n(C)c(=O)n3C)c1	-3	-3.0%	2%	-21%	0.2	-1.4
O=C(Nc1cccc(-n2cccn2)c1)C1CCCN(Cc2ccccc2F)C1 (centres undefined)	-8	0.3%	4%	-22%	0.3	·
O=C(CCNC(=O)c1ccco1)Nc1ccc(F)c(Cl)c1	6	·	1%	?	0.7	-2.4
COc1cc(NC(=O)CSc2nnc(C)s2)cc(OC)c1	-3	-0.7%	-1%	-8%	-0.3	3.1
CC(C)(C)NC(=O)CSc1nnc(-c2ccco2)n1Cc1ccco1	2	-3.0%	2%	1%	-0.3	4.4
COc1ccccc1NC(=O)CCC(=O)Nc1nnc(C(F)(F)F)s1	-5	3.0%	-5%	-6%	1.1	1.9
Cc1c(NC(=O)COC(=O)c2cc(-c3ccc(-c4ccccc4)cc3)nc3ccccc23)c(=O)n(-c2ccccc2)n1C	-24	10µM*	-21%	4%	-0.2	-2.0

Four entries out of the list, arranged by number of heavy atoms, falling:
SMILES	TRPML1 inh	ClpP mod	gsp antagonist	gsp ag	TRPML1 ag	Menin MLL FP FL
Cc1c(NC(=O)COC(=O)c2cc(-c3ccc(-c4ccccc4)cc3)nc3ccccc23)c(=O)n(-c2ccccc2)n1C	-24	10µM*	-21%	4%	-0.2	-2.0
CC(C)(C)NC(=O)CSc1nnc(-c2ccco2)n1Cc1ccco1	2	-3.0%	2%	1%	-0.3	4.4
CCOC(=O)c1nnn(-c2nonc2N)c1-c1ccc(OC)cc1	5	-6.1%	5%	-26%	-0.7	2.5
COc1cc(NC(=O)CSc2nnc(C)s2)cc(OC)c1	-3	-0.7%	-1%	-8%	-0.3	3.1

Additional compounds follow.
SMILES	TRPML1 inh	ClpP mod	gsp antagonist	gsp ag	TRPML1 ag	Menin MLL FP FL
COc1cccc(C(=O)OCC(=O)NC(=O)NC2CCCC2)c1O	10	·	·	-10%[15.4 µM]	4.1	1.2
CC1=CCC2C(=O)N(c3cc(C)on3)C(=O)C2C1 (centres undefined)	-23	-1.8%	18%	31%	-1.2	-0.1
CCOC(=O)CNC(=O)c1sc(NC(=O)c2ccccc2)nc1C	-3	0.2%	4%	0%	-0.8	2.3
CC(=O)c1ccc(NCCC(=O)c2ccccc2)cc1	5	-1.2%	1%	-10%	0.0	4.3
O=C(NCCCN1CCCC1=O)Nc1ccccc1F	5	0.2%	-1%	-34%[inhibitor]	-0.2	-0.1
Cn1cc(CCC(=O)NC2CC(C)(C)Cc3c2cnn3-c2ccc(F)cc2)cn1 (centres undefined)	-1	-8.9%	-5%	-6%	0.0	-0.7
COc1ccc(C(=O)NCCONC(=O)c2ccc(OC)cc2)cc1	-9	-2.0%	5%	-65%[inhibitor]	0.4	·
COc1ccc(CC(=O)Nc2ccc(S(=O)(=O)NCC3CCCO3)cc2)cc1 (centres undefined)	1	0.4%	-19%	-61%[inhibitor]	0.2	2.3

Outcome played no part in choosing rows. About 2.1% of those tested had a hit in this group.
